FEN1 inhibitor – blocks human flap endonuclease 1 | P39748 | Recombinant FEN1 flap cleavage, fluorescence, 15 min | Potency, µM (highest dose often 114 µM), inactives show top-dose activity change, negative = inhibition, actives largely listed as inhibitors | 0.35% of 390,000 active | AID 588795; also: nearly all actives have a fitted effect of over 65% in size
Target sequence (P39748 whole entry, looked up): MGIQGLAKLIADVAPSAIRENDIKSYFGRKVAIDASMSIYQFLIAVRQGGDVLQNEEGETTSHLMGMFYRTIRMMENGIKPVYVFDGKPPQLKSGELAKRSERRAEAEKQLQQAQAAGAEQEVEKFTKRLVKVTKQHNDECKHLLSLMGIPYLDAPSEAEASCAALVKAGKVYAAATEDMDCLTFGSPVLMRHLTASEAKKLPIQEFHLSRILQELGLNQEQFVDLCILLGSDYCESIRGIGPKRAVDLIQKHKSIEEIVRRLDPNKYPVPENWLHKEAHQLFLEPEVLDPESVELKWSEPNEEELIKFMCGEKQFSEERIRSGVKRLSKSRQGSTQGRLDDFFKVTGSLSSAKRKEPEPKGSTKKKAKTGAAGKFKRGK
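Quantitative HTS format: each compound was titrated, incubated with 10 nM nuclease for 15 min at room temperature, then challenged with flap substrate at 50 nM final. Signal change over 15 min gave concentration–effect curves.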
N370S GC mod – inhibits or activates N370S mutant glucocerebrosidase. P04062. N370S GC spleen homogenate, 4MU-glucoside fluorescence. Potency, µM (top dose mostly 59.4 µM), for the others: top-dose activity change, negative = inhibition, actives largely listed as inhibitors. 0.092% of 330,000 active;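 also: 0% = full enzyme activity and -100% = no enzyme basal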
* = called active by the depositor; u = inconclusive; x = no result given; & = joins results of further samples. Calls follow the shape of the dose curve; as a rule, active = well fitted curve in the direction sought with a large enough effect; inconclusive = small, poorly fitted or top-dose-only effect, or another doubt; inactive = no such curve, though single readings can be large; an effect the other way counts as inactive or inconclusive. Unless noted, % is scaled to controls: 0 for no effect and ±100 for the full control effect; potency is read from the fitted curve at half-maximal effect. The list is partial; most or all hits stand in other tables.

Values run as follows: FEN1 inhibitor | N370S GC mod
- O=C(ONC1=NCCCCC1)c1ccc([N+](=O)[O-])cc1
    -3% | 0%
- CN1CCN(Cc2nc3c(c(=O)[nH]c(=O)n3C)n2Cc2c(F)cccc2Cl)CC1
    20% | -21%
- Cc1ccc(S(=O)(=O)Nc2c(C)n(C)n(-c3ccccc3)c2=O)cc1
    3%&-16% | -4%&-11%
- O=C(Nc1ccccc1C(=O)N1CCOCC1)c1noc2c1CCCC2
    -9% | -18%
- COc1cc(/C=N/NC(=O)c2cccnc2)ccc1OCC(=O)Nc1c(C)cc(C)cc1C
    2% | -3%
- C=CC[C@H](CC(=O)NCCO)C(=O)N[C@@H](COC(=O)[C@H](CC=C)CC(=O)OC(C)(C)C)Cc1c[nH]c2ccccc12
    0% | x
- Cc1nn(C2CCCCC2)c(N)c1-c1ccccc1
    -3% | 6%
- N/C(Cc1cccs1)=N\OC(=O)COc1ccccc1Cl
    7% | -20%
- Cc1ccc(/C=C(\C#N)c2nc3ccccc3c(=O)[nH]2)cc1
    0% | x
- COc1cccc(OCC(O)CN2CCN(c3ncccn3)CC2)c1 (centres undefined)
    4% | 3%
- Cc1cnc(C(=O)OCC(=O)NCc2ccccc2)cn1
    -12% | 4%
- NS(=O)(=O)c1ccc(Nc2nc(-c3ccc(O)cc3)cs2)cc1
    -13% | -21%
- C=CCOc1ccc(/C(O)=C2/C(=O)C(=O)N(CCCN3CCOCC3)C2c2ccc(OC)cc2)cc1 (centres undefined)
    -7% | 1%
- O=C(OCc1nc2ccccc2s1)C1CCN(C2=NS(=O)(=O)c3ccccc32)CC1
    -4% | -17%
- CCc1nc2c(sc3nc4c(cc32)COC(C)(C)C4)c(=O)n1Cc1ccccc1
    -11% | -23%
- COc1ccc(CNCc2ccco2)cc1OCc1ccccc1
    -15% | 10%
- CCN(C(=O)CSc1nc(-c2ccccc2)c(-c2ccccc2)[nH]1)C1CCS(=O)(=O)C1 (centres undefined)
    -1% | -7%
- Cc1cccc(-c2nnc(SCC(=O)NC3CCCCC3)o2)c1
    11% | x
- CCCC(CCC(=O)NC1CCCCC1)C(=O)O (centres undefined)
    -16% | 4%
- O=C(C[n+]1ccc(CCSc2ccc(F)cc2)cc1)c1ccccc1
    40µM* | -6%
- Cc1nnc(SCC(=O)Nc2cc(Cl)ccc2Cl)n1CC1CCCO1 (centres undefined)
    -2% | -1%
- CCOc1ccccc1N1CCN(Cc2cn[nH]c2-c2ccc(F)cc2)CC1
    -15% | 0%
- CC(=O)c1cccc(N(C(=O)c2ccco2)C(C(=O)NC2CCCC2)c2cccs2)c1 (centres undefined)
    2% | -5%
- Cc1nc2ccccc2c(=O)n1-c1ccc(NS(=O)(=O)c2ccccc2)cc1
    -3% | -2%
- N=c1ccn2c(n1)O[C@@H]1[C@H](O)[C@H](CO)O[C@@H]12
    x | 5%
- Nc1ccn(CC(=O)NCc2ccccn2)c(=O)n1
    -17% | x
- Cc1onc(-c2ccccc2Cl)c1C(=O)Oc1ccccc1F
    -12% | x
- Cc1cc(OCCCCCNCCO)cc(C)c1Cl
    5% | -16%
- N/C(=N\OC(=O)c1ccc(Br)o1)c1ccccn1
    1% | 3%
- Cc1cc2c(NC(=O)Nc3ccc(F)cc3)cccc2nn1
    -5% | 0%

Later entries.
Values run as follows: FEN1 inhibitor | N370S GC mod
- CN(CC(=O)Nc1ccccc1Cl)C(=O)c1cccc(S(=O)(=O)N2CCN(c3ccc(F)cc3)CC2)c1
    2% | 10%
- Cc1ccc(NC(=O)CSc2nnc(-c3cnccn3)n2Cc2ccco2)cc1
    -4% | -23%
- CCCCC(=O)N=c1sc2cc(S(C)(=O)=O)ccc2n1C
    -1% | -9%
- COc1ccc(Cl)cc1NC(=O)COC(=O)c1ccc(Br)o1
    -12% | x
- O=C1CCC(=O)N1CCc1c[nH]c2ccccc12
    -8% | -18%
- COc1ccc(C2CC(c3ccc4ccccc4c3)=NN2C(=O)CSc2ncccn2)cc1 (centres undefined)
    3% | -3%
- Cc1noc(NS(=O)(=O)c2ccc(NC(=O)CC(C)C)cc2)c1C
    1% | 2%
- COc1cc2c(cc1OC)C(C(=O)N1CCN(c3ccccc3)CC1)C(c1cccs1)N(C)C2=O (centres undefined)
    6% | x
- COCCNC(=S)Nc1ccc(N2CCOCC2)c(S(=O)(=O)Nc2ccccc2OC)c1
    3% | x
- CC1(C(=O)NC2CCCC2)CCC(=O)N1CCC1=CCCCC1 (centres undefined)
    13% | u
- CCOc1cc(NC(=O)c2ccccn2)c(OCC)cc1NC(=O)c1ccc(OC)cc1
    6% | -10%
- O=C(Nc1nc2c(ccc3ccccc32)s1)c1ccco1
    -25% | -1%
- Cc1ccc(CSCC(=O)NCc2ccco2)cc1
    11% | 2%
- O=[N+]([O-])c1ccc(Nc2ccc3ccccc3c2)nc1
    -14% | -1%
- Cc1ccc(/C=C/C(=O)Nc2cc(=O)n(C)c(=O)n2C)o1
    -1% | -2%
- Cc1cc(Cl)c(OCCCSc2nc(C)cc(=O)[nH]2)c(Br)c1
    -9% | 23%
- CCCC1=[N+](CC)CCn2c(C)ccc21
    -2% | -2%
- O=C(c1ccco1)N1CCN(Cc2ccc(Cl)cc2)CC1
    6% | 2%
- CC(C)Oc1ccc(C2CC(=O)NC3=C2C(=O)CCC3)cc1 (centres undefined)
    -1% | -15%
- CC(C)Cc1nnc(NC(=O)Cc2cccs2)s1
    14% | -24%
- CN(C(=O)CSc1cn(CC(=O)N2CCCC2)c2ccccc12)c1ccccc1
    -1% | x
- O=C(CNS(=O)(=O)c1ccc(C(=O)N2CCCCC2)cc1)N1CCCCC1
    -2% | 2%
- Cn1nc(-c2ccc(C(=O)NCCO)cc2)c2ccccc2c1=O
    14% | 10%
- Cc1cccc(NC(=O)[C@@H]2CCCN2C2=NS(=O)(=O)c3ccccc32)c1C
    9% | x
- O=C(Nc1cc([N+](=O)[O-])ccc1N1CCCC1)c1ccco1
    -9% | -3%
- O=C(COC(=O)c1ccc(Cl)nc1)NCc1ccc2c(c1)OCO2
    -6% | -19%
- O=C(C[n+]1cccc(CO)c1)Nc1nc2ccccc2s1
    -9% | 1%
- COc1ccc(CNC(=O)CSc2nc3ccsc3c(=O)n2Cc2ccccc2Cl)cc1
    -10% | x
- CCOC(=O)C1=C(COC(=O)CCNS(=O)(=O)c2ccc(NC(C)=O)cc2)NC(=O)NC1C (centres undefined)
    12% | 9%
- CCNc1ccc(Br)cc(C(=O)/C=C/c2ccc(Cl)cc2)c1=O
    -4% | -22%

Next records.
Values run as follows: FEN1 inhibitor | N370S GC mod
- CCCN1CCN(CCCNC(=O)C2CCN(c3nnc(-n4cccc4)s3)CC2)CC1
    -7% | 2%
- COc1ccc(C(=O)OCC(=O)N(C)C2CCS(=O)(=O)C2)cc1S(=O)(=O)N(C)Cc1ccccc1 (centres undefined)
    2% | -17%
- FC(F)(F)c1cnc(COc2ccc(Cl)cc2Cl)c(Cl)c1
    4% | 5%
- CCC(=O)N1CCc2cc(S(=O)(=O)N3CCN(c4ccccc4Cl)CC3)ccc21
    -7% | 2%
- COc1ccccc1C1/C(=C(\O)c2ccc3c(c2)OCCO3)C(=O)C(=O)N1CCCn1ccnc1 (centres undefined)
    17% | -9%
- COc1ccccc1-c1ccc(=O)n(CC(=O)NCc2cccs2)n1
    2% | -9%
- COCCn1c(=N)c(S(=O)(=O)c2ccc(F)cc2)cc2c(=O)n3ccccc3nc21
    -8% | 3%
- CCc1nn(CC(=O)Nc2ccc(Br)c(C)c2)c(=N)s1
    4% | 26%
- CC1CCCCC1NC(=O)c1ccc(N2CCCC2=O)cc1 (centres undefined)
    -15% | 8%
- Cc1ccnc(NC(=O)c2cccs2)c1
    3% | 4%
- Cc1cc(N2C(=O)C(O)=C(C(=O)c3ccco3)C2c2cccc(Cl)c2)no1 (centres undefined)
    -11% | -7%
- N#Cc1nc(Cc2cccc3ccccc23)oc1NCCCN1CCOCC1
    -4% | u
- COC(=O)[C@H](C)NC(=O)/C=C/c1ccc(OC)cc1
    4% | -1%
- O=C(NC(=S)Nc1ccc(N2CCOCC2)cc1)c1cccs1
    -16% | -4%
- CCN(CC)C(=O)CSc1nnc(-c2ccco2)n1Cc1ccco1
    8% | 0%
- O=C(Nc1cccc(F)c1)c1ccc(S(=O)(=O)N2CCOCC2)cc1
    12% | -1%
- CCOc1ncccc1C(=O)OCC(=O)Nc1ccc2c(c1)OCCO2
    -17% | x
- CCc1oc2c(C)c(O)ccc2c(=O)c1-c1ccc2ccccc2n1
    -20% | -8%
- CCCS(=O)(=O)C/C(N)=N/OC(=O)c1ccc(Cl)cc1
    2% | -2%
- Cc1cc(Cl)c(OCCCCN2CCOCC2)c(Br)c1
    -2% | 13%
- COc1ccc(OC)c(NC(=O)c2ccc(NC(C)=O)cc2)c1
    5% | 8%
- CC(=O)Nc1ccc(S(=O)(=O)N2CCN(CC(=O)NC3CCCC3)CC2)cc1
    -3% | -5%
- FC(F)(F)c1cc(-c2ccccc2)nc(NCc2cccnc2)n1
    -10% | 5%
- COc1ccccc1N(CC(=O)NC1CCCCC1)C(=O)Cn1nnc(-c2ccc(C)o2)n1
    3% | -3%
- CCC1=C(OC(=O)N(CC)CC)N2C(=O)OC(=NCCOC)[C@]2(Cc2ccccc2)[C@H]2C1=CC[C@H]1C(=O)N(C)C(=O)[C@H]12
    -3% | 7%&9%
- CC(C)c1nn2c(=O)cc(COC(=O)c3ccc(NC(=O)CCc4ccccc4)cc3)nc2s1
    -2% | x
- Cc1[nH]nc2c1C(c1cccnc1)N(c1ccc(Br)cc1)C2=O (centres undefined)
    -1% | 3%
- CCOc1ncccc1C(=O)OCC(=O)Nc1ccc(-c2nc3ccc(C)cc3s2)cc1
    4% | 3%
- COc1ccc(NC(=O)c2cccc(Oc3ccccc3)c2)cn1
    -23% | 2%
- NS(=O)(=O)c1ccc(NC(=S)Nc2ccn(Cc3cccc4ccccc34)n2)cc1
    0% | 7%

One compound at a time, from the list above. Values in the order: FEN1 inhibitor, N370S GC mod
`C=CC[C@H](CC(=O)NCCO)C(=O)N[C@@H](COC(=O)[C@H](CC=C)CC(=O)OC(C)(C)C)Cc1c[nH]c2ccccc12` is listed with 0%, x
`CN1CCN(Cc2nc3c(c(=O)[nH]c(=O)n3C)n2Cc2c(F)cccc2Cl)CC1` is listed with 20%, -21%
`CCc1oc2c(C)c(O)ccc2c(=O)c1-c1ccc2ccccc2n1` is listed with -20%, -8%
`CCC1=C(OC(=O)N(CC)CC)N2C(=O)OC(=NCCOC)[C@]2(Cc2ccccc2)[C@H]2C1=CC[C@H]1C(=O)N(C)C(=O)[C@H]12` is listed with -3%, 7%&9%
`Cc1cc(Cl)c(OCCCCN2CCOCC2)c(Br)c1` is listed with -2%, 13%

Further records follow.
Values run as follows: FEN1 inhibitor | N370S GC mod
- CCC(C)NC(=O)c1ccc2c(c1)sc1nc(-c3ccc(OC)cc3)cn12 (centres undefined)
    -7% | x
- CN(CC(=O)Nc1ccc(N2CCOCC2)cc1)CC(=O)Nc1ccc([N+](=O)[O-])cc1Br
    -6% | 6%
- Cc1ccc(CNC(=O)C2CCC(=O)N(C3CCCC3)C2)c(F)c1F (centres undefined)
    21% | 0%
- Cc1ccc(-n2c(=O)[nH]c3sc4c(c3c2=O)CCCC4)cc1
    -2% | x
- CN(C)C(CNC(=O)c1ccc(S(=O)(=O)N(C)C)cc1)Cc1ccccc1 (centres undefined)
    6% | -7%
- O=C(NC(N1CCOCC1)C(Cl)(Cl)Cl)c1ccc(Br)cc1 (centres undefined)
    -2% | -7%
- COc1cc(OC)cc(-c2oc(=O)c3cc(OC)c(OC)cc3c2C#CCCO)c1
    -6% | x
- CCCCC(=O)c1ccc(O)cc1
    6% | 2%
- CC(C)(C)OC(=O)NCc1ccc(CNC(=O)c2[nH]cnc2C(=O)NC2CCN(C(=O)OC(C)(C)C)CC2)cc1
    0% | x
- CCCNC(=O)CNC(=O)c1ccc(C#N)cc1
    20% | x
- Cc1cccnc1NC(=O)c1ccc(OCc2c(C)noc2C)cc1
    -11% | 3%
- O=S(=O)(c1ccc(NC2CCCc3ccccc32)nc1)N1CCOCC1 (centres undefined)
    -5% | 2%
- CC(=O)Oc1ccc(NC(=O)CCC2CCCCC2)c(C(=O)O)c1
    -2% | 4%
- C=CCn1c(-c2csc(-c3ccc(OC)c(OC)c3)n2)n[nH]c1=S
    -3% | 3%
- Cc1c(C(=O)N(CCc2ccccc2)Cc2ccccc2)cccc1[N+](=O)[O-]
    1% | 9%
- CC1CN=C(N(Cc2ccccc2)C(=O)Nc2ccccc2)S1 (centres undefined)
    15% | 1%
- Cc1nc2ccccc2nc(C)c1=NOCc1ccccc1Cl
    -19% | -6%
- CC1CC(C)CN(CCCNC(=O)Cc2c(C(=O)O)[nH]c3ccccc23)C1 (centres undefined)
    -1% | 2%
- CNc1nc(N)c([N+](=O)[O-])c(NCCO)n1
    -11% | 10%
- COc1cc(C=O)ccc1OCC(=O)Nc1ccc2c(c1)OCO2
    -17% | 13%
- CC(=O)Nc1cccc(OCC(=O)Nc2ccccc2)c1
    -8% | 15%
- COCCn1c(C)nnc1SCC(=O)NNC(=O)c1ccc(Cl)cc1
    -1% | -2%
- Cc1noc(C)c1COc1cccc(C(=O)Nc2ccc(C#N)cc2)c1
    -21% | -15%
- O=C(Nc1c(C(=O)NCc2ccco2)cnn1-c1ccccc1)c1ccc(F)cc1
    6% | 10%
- CC(=O)Oc1ccc2oc(/C=C/N(C)C)c([N+](=O)[O-])c2c1
    -20% | 1%
- COc1ccc(NC(=O)Cc2nnc(N)s2)cc1
    1% | 6%
- CN(CC(=O)Nc1ccccc1Cl)C(=O)COC(=O)c1ccc(=O)n(Cc2ccccc2)n1
    4% | -10%
- CCN(CC)S(=O)(=O)c1ccc(NC(=O)COC(=O)CCc2cc(OC)c(OC)c(OC)c2)cc1
    -8% | -18%
